DUX4 inh – blocks DUX4-driven transcriptional activation | 293T-iDUX4 ZSCAN4-Gaussia luciferase reporter, 24 h; hits give low values | activity change, negative = inhibition, % (test concentration not listed) | 37,000 compounds, 0.8% hits;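 active = -10% or lower and over 25 points stronger than a control reporter; inconclusive = -10% or lower with a smaller gap; inactive = above -10%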;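 also: 0% = median of neutral control wells and -100% = median of positive control wells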
DUX4 inh difference – second read-out of DUX4 inh, no call of its own (marks repeat the call); Gaussia minus Italica difference, %; measured here: selective DUX4 reporter inhibition;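 worked out from the two reporters; negative = selective loss of the DUX4 reporter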
DUX4 inh control – recorded beside DUX4 inh, whose call it bears; activity change, negative = inhibition, %; measured here: Italica tet-on control reporter;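 0 = neutral control and -100 = positive control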
Active calls of the source: *; ? = inconclusive; . = not tested or not shown; & = joins results of further samples. A portion of the library; count on the stated rates, not on these rows.

DUX4 inh	DUX4 inh difference	Structure	DUX4 inh control
4.2	3.5	CN1C(=O)c2cc(NS(=O)(=O)c3ccc(Cl)cc3)ccc2OC[C@@H]2O[C@@H](CC(=O)O)CC[C@H]21	0.6
-1.0	-1.7	O=C(NCCN1CCCCC1)[C@H]1N[C@H]2c3ccc(-c4ccncc4)c(=O)n3C[C@H]2[C@@H]1CO	0.7
-3.1	6.7	COc1cccc(-c2ccc3c(c2)[C@@H]2[C@@H](CCN2C(=O)C2CCOCC2)[C@@H](CO)N3)c1	-9.8
-3.2	-1.6	O=C(C1CCOCC1)N1CC(=O)N2[C@H](CO)[C@@H](c3ccc(C#CC4CCCCC4)cc3)[C@H]2C1	-1.6
3.1	5.4	C[C@@H]1CCCCO[C@@H](CN(C)Cc2ccncc2)[C@H](C)CN([C@H](C)CO)C(=O)c2cc(NC(=O)Cc3ccccc3)ccc2O1	-2.3
?	.	O=C(Cc1ccccn1)N1CC[C@@H]2[C@H]1c1cc(-c3cccc(F)c3)ccc1N[C@@H]2CO	.
?	.	Cc1ccc(S(=O)(=O)N2C[C@H](O)COC[C@@H]3O[C@@H](CC(=O)NCc4ccc(Cl)c(Cl)c4)CC[C@H]32)cc1	.
6.7	-13.9	COc1ccc2c3c([nH]c2c1)[C@H](CO)N(C(=O)c1cnccn1)CC31CN(C(=O)c2cnccn2)C1	20.6
1.7	0.2	CO[C@@H]1CN(C)C(=O)c2cc(NC(=O)c3cc(C)on3)ccc2OC[C@@H](C)N(C(=O)C2CCC2)C[C@H]1C	1.6
0.9	4.7	CO[C@H]1CC[C@@H]2CCOc3c(C#N)cccc3C(=O)N(C)C[C@@H](C)C(=O)N(C)C[C@@H]1O2	-3.8
12.3	-3.4	CC(C)C#Cc1ccc([C@H]2[C@H](CO)N3C(=O)CN(C(=O)Cc4cccnc4)C[C@@H]23)cc1	15.6
-2.3	-2.8	COc1ccc(C[C@H]2CCc3cnnn3COCCNC2=O)cc1	0.4
6.0	-2.3	O=C(NCC[C@H]1CC[C@H](NS(=O)(=O)c2ccccc2)[C@H](CO)O1)c1ccccc1F	8.3
?	.	O=C(Cc1ccccc1)N1CC(=O)N2[C@H](C1)[C@H](c1ccc(C#CCc3ccccc3)cc1)[C@@H]2CO	.
2.8	0.2	CN1C(=O)c2cc(NC(=O)c3cccc(F)c3)ccc2OC[C@@H]2O[C@H](CC(=O)NC3CCC3)CC[C@@H]21	2.6
19.6	15.7	CN(C)C(=O)c1ccc(-c2ccc3c(c2)[C@H]2[C@H](CCN2S(=O)(=O)c2ccccc2)[C@@H](CO)N3)cc1	3.9
-1.0	-1.1	CNC(=O)C[C@@H]1CC[C@@H]2[C@H](COc3ccc(NS(=O)(=O)c4ccc(F)cc4)cc3C(=O)N2C)O1	0.0
7.3	4.7	CC(C)NC(=O)N1[C@@H]2CNC[C@H]1C2c1ccc(-c2ccc(C#N)cc2)cc1 (stereo not given in full)	2.7
?	.	CC(C)[C@@H](C)NC(=O)N(C)C[C@@H]1OCc2ccccc2-c2c(n(C)c3ccccc23)C(=O)N([C@@H](C)CO)C[C@@H]1C	.
11.0	2.2	CCC(=O)N1CC2(C1)[C@H](c1ccc(-c3ccc(C)cc3)cc1)[C@@H](CO)N2S(C)(=O)=O	8.8
?	.	COc1ccc2c3c([nH]c2c1)[C@H](CO)N(S(=O)(=O)c1cn(C)cn1)CC31CCN(Cc2ccccc2)CC1	.
1.2	-3.8	CCN1[C@@H]2c3ccc(-c4cccnc4)c(=O)n3C[C@H]1[C@H](CO)[C@H]2C(=O)NC1CCCC1	5.1
15.3&2.2	16.8&-9.6	O=S(=O)(c1cccc(F)c1)N1[C@@H]2CNC[C@H]1C2c1ccc(-c2ccncc2)cc1 (stereo not given in full)	-1.5&11.8
-2.6	-3.1	CCN(C[C@H]1[C@@H](c2ccc(-c3ccccc3)cc2)[C@@H](CO)N1C(C)=O)C(C)=O	0.5
7.5	0.5	Cc1cccc(S(=O)(=O)N2CC[C@H]3[C@@H](CO)N(C)c4ccc(-c5ccc(C#N)cc5)cc4[C@H]32)c1	7.0
-4.8	-3.3	CC=Cc1ccc2n(c1=O)C[C@H]1[C@H](CO)[C@@H](C(=O)NCC)[C@@H]2N1Cc1cccc(Cl)c1 (mixture of isomers)	-1.5
-6.4	2.5	CC=Cc1ccc2n(c1=O)C[C@@H]1[C@@H](CO)[C@H](C(=O)NC3CCCC3)N(Cc3ccccc3)[C@H]21 (mixture of isomers)	-8.9
0.3	-3.1	COc1ccccc1C(=O)N1C[C@@H]2[C@H](c3ccccc31)[C@@H](CO)N2C(=O)Nc1ccccc1	3.5
8.8	16.6	CC=Cc1ccc2n(c1=O)C[C@@H]1[C@@H](CO)[C@H](C(=O)NC3CCC3)N(CCC)[C@H]21 (mixture of isomers)	-7.8
-3.7	1.9	O=C(Cc1ccccc1)N1C[C@H]2[C@@H](c3ccccc31)[C@@H](CO)N2C(=O)c1cccc(F)c1	-5.6
0.4	-2.1	CCCNC(=O)N[C@@H]1CC[C@@H](CCn2cc(C3CC3)nn2)O[C@H]1CO	2.5
16.6	6.3	COc1ccccc1-c1ccccc1[C@@H]1[C@H](C#N)N(C(=O)CN(C)C)[C@H]1CO	10.3
-1.2	-2.7	CO[C@H]1CN(C)C(=O)c2ccc(NS(C)(=O)=O)cc2OC[C@H](C)N(C(=O)c2ccc3c(c2)OCO3)C[C@@H]1C	1.5
22.9	15.3	CN(C)CC#Cc1ccc([C@@H]2[C@H]3CN(CC4CCOCC4)CCCCN3[C@H]2CO)cc1	7.6
2.0	0.2	COc1ccccc1-c1ccccc1[C@@H]1[C@@H](C#N)N(C(=O)C2CCC2)[C@H]1CO	1.7
0.8	-3.9	C/C=C/c1ccc([C@@H]2[C@H](CO)N(C(=O)CC)C23CN(C(=O)c2ccccc2)C3)cc1	4.7
3.2	-1.2	CO[C@H](CN(C)Cc1nccs1)[C@H](C)CN([C@@H](C)CO)S(=O)(=O)c1ccc(C)cc1	4.5
4.2	0.2	CCCNC(=O)C[C@@H]1C[C@H]2c3cc(NC(=O)C4CCOCC4)ccc3O[C@H]2[C@@H](CO)O1	4.0
5.9	2.1	CC=Cc1ccc2n(c1=O)C[C@@H]1[C@@H](CO)[C@H](C(=O)NCc3ccc(F)cc3)[C@H]2N1CC (mixture of isomers)	3.8
4.8	3.1	N#C[C@@H]1[C@@H](c2ccccc2)[C@@H](CO)N1S(=O)(=O)c1cccc(F)c1	1.7
-5.0	-4.3	C[C@@H]1CN([C@H](C)CO)C(=O)CCCn2cc(nn2)CO[C@H]1CN(C)C(=O)CCC(F)(F)F	-0.7
20.9	6.8	CN(C)C(=O)c1ccc(-c2ccc([C@@H]3[C@@H](CO)N4CCCCN(Cc5cncnc5)C[C@@H]34)cc2)cc1	14.1
-6.2	-8.4	CO[C@@H]1CN(C)C(=O)c2ccc(NC(=O)Nc3cc(F)ccc3F)cc2OC[C@H](C)N(C(=O)c2ccccn2)C[C@H]1C	2.2
13.6	7.3	O=C(c1ccncc1)N1CCCCN2[C@H](CO)[C@H](c3ccc(-c4ccccc4)cc3)[C@@H]2C1	6.3
13.4	11.6	C[C@H](NC(=O)N(C)C[C@H]1OCc2ccccc2-c2c(n(C)c3ccccc23)C(=O)N([C@H](C)CO)C[C@@H]1C)c1ccccc1	1.8
-1.3	-0.1	Cc1ccccc1-c1ccc([C@@H]2[C@@H](CO)N3C(=O)CN(C(=O)Nc4cccc(F)c4)C[C@H]23)cc1	-1.2
-0.1	2.2	CCC(=O)N(CC)C[C@@H]1[C@@H](c2ccc(-c3ccccc3)cc2)[C@@H](CO)N1C(C)=O	-2.3
1.1	-0.5	N#C[C@H]1N[C@H](CO)[C@H]1c1ccc(C#CC2CCCCC2)cc1	1.6
3.1	0.2	O=C(C[C@@H]1C[C@H]2c3cc(NC(=O)Cc4ccncc4)ccc3O[C@H]2[C@@H](CO)O1)NCC1CC1	3.0
-2.5	-0.4	CCC(=O)N[C@@H]1CC[C@H](CC(=O)NCc2ccccc2F)O[C@H]1CO	-2.2

Three of the entries above in order of the DUX4 inh difference value, high to low.
DUX4 inh	DUX4 inh difference	Structure	DUX4 inh control
13.4	11.6	C[C@H](NC(=O)N(C)C[C@H]1OCc2ccccc2-c2c(n(C)c3ccccc23)C(=O)N([C@H](C)CO)C[C@@H]1C)c1ccccc1	1.8
1.1	-0.5	N#C[C@H]1N[C@H](CO)[C@H]1c1ccc(C#CC2CCCCC2)cc1	1.6
-5.0	-4.3	C[C@@H]1CN([C@H](C)CO)C(=O)CCCn2cc(nn2)CO[C@H]1CN(C)C(=O)CCC(F)(F)F	-0.7

The list continues:
DUX4 inh	DUX4 inh difference	Structure	DUX4 inh control
1.2	1.1	CNC[C@H]1Oc2ccc(NS(=O)(=O)c3c(C)noc3C)cc2CC(=O)N([C@H](C)CO)C[C@@H]1C	0.1
-6.2	-7.6	CN1[C@@H]2Cn3c(ccc(-c4ccncc4)c3=O)[C@H]1[C@@H](C(=O)NC1CCCCC1)[C@@H]2CO	1.4
?	.	O=C(C[C@H]1C[C@@H]2c3cc(NC(=O)Nc4ccccc4F)ccc3O[C@@H]2[C@@H](CO)O1)NCc1ccc2c(c1)OCO2	.
0.1	-1.7	COCCNC(=O)C[C@@H]1CC[C@@H]2[C@H](COc3ccc(NC(=O)C4CCOCC4)cc3C(=O)N2C)O1	1.8
-5.2	-0.4	COCC(=O)N1[C@@H](CO)[C@@H]2c3ccccc3N(C(=O)Nc3ccccc3Cl)C[C@@H]21	-4.8
-2.7	-2.7	COc1ccc(S(=O)(=O)N[C@@H]2CC[C@@H](CC(=O)O)O[C@@H]2CO)cc1	-0.1
0.7	-2.9	CCCNC(=O)N1[C@H](CO)[C@H](c2ccccc2)[C@H]1CNC(=O)C1CCC1	3.5
1.4	-4.7	CCC(=O)N1CC2(C1)[C@H](c1ccc(-c3ccccc3OC)cc1)[C@@H](CO)N2C(C)=O	6.2
5.0	4.4	COc1ccc(C[C@@H]2CCc3cnnn3COC[C@H](C)NC2=O)cc1	0.6
0.6	3.4	CO[C@H]1CN(C)C(=O)c2ccc(NS(=O)(=O)CC(F)(F)F)cc2OC[C@@H](C)N(CC2CCCCC2)C[C@H]1C	-2.9

Among those listed so far, these have a COOH group:
DUX4 inh	DUX4 inh difference	Structure	DUX4 inh control
4.2	3.5	CN1C(=O)c2cc(NS(=O)(=O)c3ccc(Cl)cc3)ccc2OC[C@@H]2O[C@@H](CC(=O)O)CC[C@H]21	0.6
-2.7	-2.7	COc1ccc(S(=O)(=O)N[C@@H]2CC[C@@H](CC(=O)O)O[C@@H]2CO)cc1	-0.1

(next part)
DUX4 inh	DUX4 inh difference	Structure	DUX4 inh control
-5.2	-6.5	COCC(=O)Nc1ccc2c(c1)OC[C@@H](C)N(Cc1ccncc1)C[C@H](C)[C@H](OC)CN(C)C2=O	1.2
1.3	0.9	COCCNC(=O)C[C@H]1CC[C@H]2[C@@H](COC[C@H](O)CN2C(=O)Nc2ccccc2OC)O1	0.4
0.7	-1.1	COc1ccc(NC(=O)N2C[C@@H](O)COC[C@H]3O[C@@H](CC(=O)NCc4ccncn4)CC[C@@H]32)cc1	1.8
1.5	-2.1	O=C(CC(F)(F)F)N1C[C@H]2[C@@H](c3ccccc31)[C@@H](CO)N2C(=O)CN1CCOCC1	3.6
-1.7	-2.4	N#C[C@@H]1[C@H](c2ccc(-c3cccnc3)cc2)[C@H](CO)N1C(=O)C1CC1	0.8
-2.1	-4.0	O=C(NCCc1ccccc1)[C@H]1[C@H](CO)[C@H]2Cn3c(ccc(-c4ccccc4)c3=O)[C@@H]1N2	1.8
-2.8	-2.3	CO[C@@H](CN(C)S(=O)(=O)c1cccc(Cl)c1)[C@@H](C)CN([C@H](C)CO)S(=O)(=O)c1cccc(Cl)c1	-0.5
-4.7	-0.9	CN1C(=O)c2cc(NS(=O)(=O)c3ccc(Cl)cc3)ccc2OC[C@H]2O[C@@H](CC(=O)Nc3ccc4c(c3)COC4)CC[C@@H]21	-3.8
0.5	2.4	COC(=O)C[C@@H]1C[C@@H]2c3cc(NC(=O)Cc4ccncc4)ccc3O[C@@H]2[C@H](CO)O1	-1.9
0.1	5.4	CCNC(=O)[C@@H]1[C@@H](CO)[C@@H]2Cn3c(ccc(C4=CCCCC4)c3=O)[C@@H]2N1Cc1ccccc1	-5.3
-5.9	-1.6	COc1ccc(NC(=O)Nc2ccc3c(c2)[C@@H]2C[C@@H](CC(=O)NCc4ccc5c(c4)OCO5)O[C@@H](CO)[C@@H]2O3)cc1	-4.3
-3.1	-3.6	CO[C@@H](CN(C)C(=O)Nc1ccc(Cl)cc1)[C@H](C)CN(Cc1ccccc1Cl)[C@@H](C)CO	0.6
-2.6	0.7	CC(C)[C@H]1COCn2nncc2CC[C@@H](Cc2ccccc2)C(=O)N1	-3.3
7.1	-2.7	Cc1ccccc1-c1ccc([C@@H]2[C@@H](CO)N3CCCCN(S(=O)(=O)c4ccc(F)cc4)C[C@@H]23)cc1	9.8
9.1	3.8	COc1ccc(-c2ccc([C@H]3[C@H]4CN(C(=O)c5ccccn5)CC(=O)N4[C@H]3CO)cc2)cc1	5.2

Assay outcomes as filed in PubChem.
